VDR inh: vitamin D3 receptor (human) inhibition. P11473. VDR-SRC2-3 peptide fluorescence polarization, 2 h. Potency, µM, for the others: max response, negative = inhibition, usual class: inhibitors. actives 0.93% (n = 400,000). AID 504847; active = well fitted inhibition curve with a large enough effect; inconclusive = small, poorly fitted or top-dose-only effect, or another doubt; inactive = no such curve, though single readings can be large or run the other way; note: series mostly up to about 120 µM
Target sequence (P11473 whole entry, looked up): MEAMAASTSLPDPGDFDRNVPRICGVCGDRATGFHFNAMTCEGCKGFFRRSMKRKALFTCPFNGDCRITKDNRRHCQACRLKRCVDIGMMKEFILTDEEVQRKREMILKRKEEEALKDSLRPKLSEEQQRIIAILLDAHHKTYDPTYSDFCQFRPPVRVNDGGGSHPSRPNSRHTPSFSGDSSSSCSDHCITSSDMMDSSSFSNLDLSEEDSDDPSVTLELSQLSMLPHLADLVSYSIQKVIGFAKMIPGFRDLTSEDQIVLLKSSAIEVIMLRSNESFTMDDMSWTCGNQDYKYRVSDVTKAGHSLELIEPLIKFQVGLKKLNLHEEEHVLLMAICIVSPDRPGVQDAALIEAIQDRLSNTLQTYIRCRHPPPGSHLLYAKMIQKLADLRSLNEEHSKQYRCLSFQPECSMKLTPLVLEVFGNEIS
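Reagent solutions, kept cold and dark, are dispensed first; compounds are then pinned in at 23 nl, plates briefly spun, and incubated 2 h at ambient temperature. Inhibition of VDR–SRC2-3 peptide binding is read by fluorescence polarization.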
Starred values were filed as active, the others as inactive; ? = inconclusive. % is set by controls: 0 for no effect and ±100 for the full control effect; potency is the fitted concentration of half-maximal effect. An excerpt; count on the stated rates, not on these rows.

VDR inh	SMILES
-5.3%	CC(=O)Nc1ccc(NC(=O)C(C)OC(=O)C2CCN(S(=O)(=O)c3cccs3)CC2)cc1 (centres undefined)
7.8%	O=C1CCc2cc(S(=O)(=O)N3CCC(C(=O)NC4CCCCCCC4)CC3)ccc2N1
-4.3%	CC(=O)c1ccc(C(=O)N2CCCC(N3CCN(c4ccc(F)cc4)CC3)C2)s1 (centres undefined)
4.4%	Cc1[nH]c(=O)nc(NN=Cc2ccc(Cl)cc2)c1C(=O)Nc1ccc(Cl)cc1
2.3%	Cc1cc(Br)ccc1NC(=O)c1sc2nc3n(c(=O)c2c1C)CCCC3
14.7%	CC(CNc1nc2ccc(Cl)cc2n2cnnc12)c1ccccc1 (centres undefined)
-3.8%	Cc1nn(CCCC(=O)NCCc2ccccc2)c(=O)c2nn(-c3ccccc3)c(C)c12
3.7%	COc1ccc(S(=O)(=O)N(C)CC(=O)NCc2cccnc2)cc1C
-25.0%	CCN(CC)CCCNC(=O)CCc1c(C)nc2c(c1C)c(=O)n(C)c(=O)n2C
15.4%	COc1cccc(-c2nc(CS(=O)(=O)CC(=O)NCCCN3CCOCC3)c(C)o2)c1
17.0%	COC(=O)CCNC(=O)N1CCN(c2nnc(C)c3c(C)n(-c4ccccc4)nc23)CC1
-1.8%	N#Cc1ccccc1-c1cncnc1NCc1cccnc1
0.2%	COc1ccc(OC)c(/C=N/Nc2cc(C)nc(N3CCOCC3)n2)c1
-2.4%	Cc1c(C(=O)O)c(=O)n(-c2ccccc2)n1-c1ccccc1
2.0%	CCOC(=O)c1c(C)[nH]c(C)c1C(=O)COc1ncnc2cc([N+](=O)[O-])ccc12

Single values from above.
In VDR inh, CC(CNc1nc2ccc(Cl)cc2n2cnnc12)c1ccccc1 (centres undefined) is listed with 14.7%
In VDR inh, Cc1[nH]c(=O)nc(NN=Cc2ccc(Cl)cc2)c1C(=O)Nc1ccc(Cl)cc1 is listed with 4.4%
In VDR inh, COC(=O)CCNC(=O)N1CCN(c2nnc(C)c3c(C)n(-c4ccccc4)nc23)CC1 is listed with 17.0%
In VDR inh, Cc1cc(Br)ccc1NC(=O)c1sc2nc3n(c(=O)c2c1C)CCCC3 is listed with 2.3%

The results go on.
VDR inh	SMILES
2.6%	CCN(Cc1ccccc1)S(=O)(=O)c1ccc(-c2coc(C)n2)cc1
-16.6%	COc1ccc(CN(C)C(=O)C(Cc2ccccc2)NC(=O)c2ccccc2)cc1F (centres undefined)
-14.7%	CCOc1ccc(N(CC(=O)N2CCOCC2)S(=O)(=O)c2ccc(SC)cc2)cc1
10.6%	Cn1c(N)c(C(=O)COC(=O)c2ccc3c(c2)C(=O)N(c2ccc(Cl)cc2)C3=O)c(=O)n(C)c1=O
-8.6%	CCOCCc1nnc(NC(=O)C2CC(=O)N(c3ccc(OCC)cc3)C2)s1 (centres undefined)
-11.5%	COc1ccccc1-c1cc(C(F)(F)F)nc(N2CCOCC2)n1
-4.3%	CN(C)c1ccc(-c2nc(-c3ccco3)no2)cc1[N+](=O)[O-]
1.3%	COc1cccc(NC(=S)NCCCN2CCOCC2)c1
10.7%	O=C(CCCN=C1NS(=O)(=O)c2ccccc21)OCC(=O)N1CCc2ccccc21
13.0%	O=C(Cc1ccc(S(=O)(=O)N2CCOCC2)s1)NCCc1ccc(F)cc1
-0.6%	O=C1OC(c2ccccc2)=N/C1=C/c1cccc(OC(=O)c2cccs2)c1
6.6%	CCn1nnc2cc(C(=O)Nc3ccc(OC)cc3)ccc21
0.1%	CCOc1ccc(NC(=O)c2cc3cc4cc(OC)ccc4nc3s2)cc1
-3.4%	Cc1ccc(N(C(=O)Cc2cccs2)C2C=CS(=O)(=O)C2)cc1Cl (centres undefined)
18.9%	Cn1cc(Cl)c(C(=O)Nc2cccc(Cl)c2Cl)n1
-6.8%	C[C@@H]1CN([C@@H](C)CO)C(=O)c2cc(NC(=O)CCC(F)(F)F)ccc2O[C@H]1CN(C)S(=O)(=O)c1ccc(Cl)cc1
-14.3%	COc1ccc(Cl)cc1NC(=O)Cn1c(=O)n2nc(-c3ccccc3)nc2c2ccccc21
14.6%	C(#CCN1CCOCC1)CCCN1CCOCC1
18.6%	CC(=O)c1ccc(NC(=O)CSC(=S)N2CCCC2)cc1
0.2%	O=C(COc1ccc(F)cc1Cl)Nc1cc(S(=O)(=O)N2CCOCC2)ccc1N1CCCCC1
-7.6%	CC(=NO)C1CCC2C3CCC4=CC(=NO)CCC4(C)C3C(=O)CC12C (centres undefined)
-3.4%	NS(=O)(=O)c1ccc(CCNC(=O)COC(=O)C2CCCN2C(=O)c2cccs2)cc1 (centres undefined)
-15.7%	Cc1cc(NC(=O)CSc2c3c(nc4ccccc24)CCC3)no1
0.5%	Cc1sc2ncnc(OCC(=O)Nc3ccc4c(c3)OCCO4)c2c1C
-6.9%	NC(=O)c1nc(-c2cccs2)nc2c1[nH]c(=O)n2-c1ccc(F)cc1
-1.6%	CCOc1ccccc1CNC(=O)c1cc(-c2ccc(C)c(C)c2)nc2ccccc12
-0.3%	CC(C)(C)OC(=O)CC[C@@H](C(=O)NCCCCCCCCCCC(=O)N1CCN(C(=O)OC(C)(C)C)CC1)n1cc(CCCCCNC(=O)OC(C)(C)C)nn1
-3.0%	Cc1ncc([N+](=O)[O-])n1CC(=O)N/N=C/c1ccc(F)cc1
5.9%	CCOc1ccc(NC(=O)c2ccc(Br)o2)c([N+](=O)[O-])c1
?	c1ccc2c(c1)OCC(c1nnc3sc(-c4ccc5c(c4)OCO5)nn13)O2 (centres undefined)

Overlap with the part before: 2 compounds; new compounds follow.
VDR inh	SMILES
5.9%	CCOc1ccc(NC(=O)c2ccc(Br)o2)c([N+](=O)[O-])c1
?	c1ccc2c(c1)OCC(c1nnc3sc(-c4ccc5c(c4)OCO5)nn13)O2 (centres undefined)
4.6%	c1ccc(Nc2nnc(SCc3cccc4ccccc34)s2)cc1
-5.1%	Cc1ccc(S(=O)(=O)c2cnc(SCC(=O)Nc3ccccc3C(F)(F)F)[nH]c2=O)cc1C
20.3%	Cc1cccc(C)c1NC(=S)Nc1ccc(Cl)c(Cl)c1
3.6%	Cc1cccn2c(=O)c3cc(C(=O)NCc4ccco4)c(=N)n(CCc4ccccc4)c3nc12
89.1µM*	c1ccc(-c2cccc(N3CCC4(CCNCC4)CC3)c2)cc1
-0.8%	Cc1cc(C)c(NC(=O)CN2C(=O)NC(Cc3ccccc3)C2=O)c(C)c1 (centres undefined)
-9.3%	Cc1cccc([C@@H]2[C@@H]3C(=O)N(Cc4ccccc4)C(=O)[C@@H]3[C@]3(CC(C)C)C(=O)N(c4cccc(Br)c4)C(=O)N23)c1
4.5%	COc1ccccc1-n1c(CNC(=O)c2cccc([N+](=O)[O-])c2C)n[nH]c1=S
-16.8%	Cc1ccc(S(=O)(=O)N2CCSC2)cc1C
6.0%	Clc1ccc(-c2nc(-c3cnccn3)no2)cc1
-13.2%	CC1CCCN(C(=O)CCc2ccccc2)C1 (centres undefined)
3.1%	O=P(O)(OCc1ccccc1)OCc1ccccc1
-24.5%	NC(Cc1ccccc1)C(O)c1ccco1 (centres undefined)
-8.1%	CCCCc1cc(=O)oc2cc(OCC(=O)N3CCC(C(N)=O)CC3)ccc12
-11.6%	O=C(CCN1C(=O)C2CCCCC2C1=O)Nc1ccc(OC(F)F)cc1 (centres undefined)
0.2%	O=C(Cn1ncn2nc(-c3cccs3)cc2c1=O)NCc1ccc(Cl)cc1
-4.6%	Brc1ccc2oc(-c3ccn[nH]3)cc2c1
?	CC(C)(C)C(=O)NC(=S)Nc1ccccc1F
-20.8%	Cc1cccc(-n2c(C)cc(/C=N\NC(=O)c3cccs3)c2C)c1
1.3%	CC(=O)CSc1nc(-c2ccccc2)c(-c2ccccc2)o1
-17.9%	CCOc1ccccc1NC(=O)COC(=O)/C=C/c1ccc(OC)c(OC)c1
4.3%	Cc1cccc(NC(=O)CCn2cnc3ccccc3c2=O)c1
11.3%	Cc1c(C)c2ccc(OCC(=O)NC3CCN(Cc4ccccc4)CC3)c(C)c2oc1=O
5.9%	COc1cc(C2CC(=O)c3cnc(N)nc3C2)cc(OC)c1OC (centres undefined)
6.7%	CC(C)(C)OC(=O)N1CCC(c2c(C(=O)Nc3ccc4c(c3)OCO4)cnn2-c2ccc(F)cc2F)CC1
-13.2%	Cc1cccc(NC(=S)N(CCc2ccncc2)C(C)C)c1C
9.8%	Cc1ccc(S(=O)(=O)N2Cc3ccccc3CC2C(=O)Nc2cc(C)on2)cc1 (centres undefined)
14.0%	COCCNC(=O)c1ccc(CSc2nc3ccncc3n2Cc2ccccc2)cc1
6.3%	COCCNC(=S)N/N=C(\C)c1cccc(C(F)(F)F)c1
-15.1%	N#CC(c1ccccc1)C1CCN(Cc2ccccc2)CC1 (centres undefined)

Records above marked active in VDR inh.
VDR inh	SMILES
89.1µM*	c1ccc(-c2cccc(N3CCC4(CCNCC4)CC3)c2)cc1

Returning to the listing with the five entries that preceded the break.
VDR inh	SMILES
-13.2%	Cc1cccc(NC(=S)N(CCc2ccncc2)C(C)C)c1C
9.8%	Cc1ccc(S(=O)(=O)N2Cc3ccccc3CC2C(=O)Nc2cc(C)on2)cc1 (centres undefined)
14.0%	COCCNC(=O)c1ccc(CSc2nc3ccncc3n2Cc2ccccc2)cc1
6.3%	COCCNC(=S)N/N=C(\C)c1cccc(C(F)(F)F)c1
-15.1%	N#CC(c1ccccc1)C1CCN(Cc2ccccc2)CC1 (centres undefined)
-12.8%	COc1ccc(CCN(C)C(=O)COc2ccc(N(C)S(=O)(=O)c3ccc(C)cc3)cc2)cc1OC
?	COc1ccccc1C1C2=C(N=c3s/c(=C/c4cccc(OCC(=O)O)c4)c(=O)n31)c1ccccc1CC2 (centres undefined)
-11.6%	CCC(C(=O)N1CCN(c2ccccc2)CC1)n1nc(C)n2c(cc3sccc32)c1=O (centres undefined)
-7.1%	Cc1ccc(C(=O)NCC(=O)N(C)Cc2ccc(Cl)cc2Cl)s1
?	CCn1c(=O)c(=O)[nH]c2cc(C(=O)NC3CCCC3)ccc21
2.5%	CCO[C@H]1OC(C(=O)NCc2nc3ccccc3[nH]2)=C[C@@H](c2ccc3c(c2)OCO3)[C@@H]1CCCO
-19.9%	O=C(c1ccccc1)C1OC1C(=O)c1ccccc1 (centres undefined)
6.9%	CCC(C)C1Nc2ccc(C(=O)NCCc3ccc(OC)c(OC)c3)cc2NC1=O (centres undefined)
-15.3%	CCN(CC)c1ccc(S(=O)(=O)N2CCOCC2)cc1NC(=O)COC(=O)C1=COCCO1
13.5%	O=C(CSc1cc(Cl)ccc1Cl)NCCCn1ccnc1
0.5%	Cc1cc(C)c(NC(=O)C2CCN(c3nnc(C)c4c(C)n(-c5ccccc5)nc34)CC2)c(C)c1
19.1%	COc1cc(OC)cc(C(=O)NCCCNC(=O)c2cccnc2)c1
2.5%	COc1ccccc1-c1nnc(-c2ccc(F)cc2)o1
-2.9%	CCOC(=O)Cc1cc(=O)n2[nH]c(C(C)(C)C)cc2n1
3.1%	CCC(C)N1CC(C(=O)NC2CCCCC2)CC1=O (centres undefined)
-8.2%	CCOC(=O)C1CCN(C(c2cccc(OC)c2)c2sc3nc(C)nn3c2O)CC1 (centres undefined)
3.0%	Cc1ccc(NC(=O)CN(C)CC(=O)Nc2c(C)cccc2C)c(Br)c1
-13.8%	CCOC(=O)c1c(C)oc2c1c1c(c3ccccc32)OCN(Cc2ccccn2)C1
0.4%	NCCC[C@@H](CC(=O)N[C@@H]1CCNC[C@H]1C(=O)N[C@H](CC(=O)N[C@@H](CCC(=O)O)CC(=O)O)Cc1c[nH]c2ccccc12)NC(=O)C[C@H](CO)NC(=O)[C@@H]1CCCC[C@H]1N
-23.8%	CCOc1ccccc1N1Cc2cc(C)c(C)cc2C1
-9.8%	N#Cc1ccccc1NC(=O)c1cnc(N2CCOCC2)c2ccccc12
18.9%	Cc1cccc(C(=O)NNC(=O)c2cc3cc4ccccc4nc3s2)c1
24.2%	COc1ccc(-c2nnc(Nc3ccc(OC)c(C(N)=O)c3)c3ccccc23)cc1
16.7%	COc1ccc(Cn2c(SCc3ccc(C(=O)NC(C)C)cc3)nc3cccnc32)cc1
14.1µM*	C=CCOc1cccc(/C=C\c2nc(O)c([N+](=O)[O-])c(=O)[nH]2)c1
21.6%	O=C(COC(=O)CCCN1C(=O)c2ccccc2C1=O)Nc1ncc(Cl)cc1Cl
-3.6%	CCOC(=O)C1=C(C)NC2=C(C(=O)C(C(=O)OCC)C(c3ccco3)C2)C1c1ccccn1 (centres undefined)
-29.1%	COC(=O)C(NNc1ccccc1C)(NC(=O)c1ccc(F)cc1)C(F)(F)F (centres undefined)
27.0%	NC(=O)c1cc(N=Nc2c(N)[nH]n(-c3c(Cl)cc(Cl)cc3Cl)c2=O)ccc1Cl
-12.1%	Cc1ccc(-c2nc3ccccc3nc2NN)cc1
-3.0%	Brc1ccccc1OCCCCCN1CCOCC1
12.4%	CC(=O)Nc1cccc(Oc2cnc3ccccc3n2)c1
-2.0%	CCOC(=O)c1c(NC(=O)COC(=O)CNC(=O)c2ccco2)sc(C(C)=O)c1C
1.9%	CC1CCC(NC(=O)C2(C)Cc3ccccc3C(=O)N2Cc2ccc(F)cc2)CC1 (centres undefined)
-21.5%	CN1C(=O)CC(N2CCN(c3ccccn3)CC2)C1=O (centres undefined)
-8.2%	Fc1ccccc1/C=N/N1CCN(Cc2ccccc2Cl)CC1
19.1%	O=C(Nc1ccc(Br)cc1)C1C2C=CC3(O2)C1C(=O)N(CCN1CCCCC1)C3C(=O)NC1CCCCC1 (centres undefined)
-15.0%	Cn1ccnc1SCC(=O)c1ccc(Br)cc1
-4.0%	O=C(c1cccc(OC2CCN(Cc3ccc(F)cc3Cl)CC2)c1)N1CCCC1
-12.7%	CCOC(=O)c1c(NC(=O)CNC2CCCc3ccccc32)sc(C(N)=O)c1C (centres undefined)

From PubChem BioAssay
